NPYLR7 ag = mosquito NPYLR7 agonism. HEK293T NPYLR7/Galpha15, GCaMP6s calcium fluorescence. activation, % at 10 µM. 270,000 compounds, 0.15% hits. AID 1259423; in the data active = activation above about 40%;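 also: 0% = vehicle and 100% = reference agonist at the receptor; some compounds past the cut are filed as inactive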
NPYLR7 ag max-min = second read-out of NPYLR7 ag, no call of its own (marks repeat the call); activation, %; measured here: Max-Min RFU normalised activation; some inactives read as strong as hits;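 span of the calcium signal over five minutes; 0% = vehicle and 100% = native peptide agonist; compound fluorescence can raise it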
Numbers without * were called inactive; & = joins results of further samples.

1: CC1CCCC(NC(=O)c2ccc(-n3nc(-c4cccc(C(F)(F)F)c4)cc3N)cc2)C1 (stereo not given)
2: CCC(C)N(CC)C(=O)c1ccc2n[nH]nc2c1 (stereo not given)
3: COc1ccc(CNC(=O)c2cccnc2N2CCN(S(=O)(=O)c3cc(OC)ccc3OC)CC2)cc1
4: CNc1ccnc(N2CCN(Cc3cnc(C(C)C)nc3)CC2)n1
5: CCN(CC)S(=O)(=O)c1cccc(NCC(=O)Nc2ccc3c(c2)OC(F)(F)O3)c1
assay / entry | 1 | 2 | 3 | 4 | 5
NPYLR7 ag | -8.3 | 1.6 | 25.2 | 11.0 | 4.7
NPYLR7 ag max-min | -11.7 | 0.0 | 18.7 | 6.6 | 4.0

6: CCN(C(=O)c1cc2c(=O)n3cccc(C)c3nc2n1C)C1CCCCC1
7: O=C(c1csc(CSc2nnc(-c3ccco3)n2-c2ccccc2Cl)n1)N1CCN(C(c2ccccc2)c2ccccc2)CC1
8: CCCNC(=O)CSc1ccccc1C#N
9: O=C(c1cccc2ccnn12)N(Cc1cccnc1)C1CCCCC1
10: CCc1cc2c(SCC(=O)c3cc(C)n(C)c3C)ncnc2s1
assay / entry | 6 | 7 | 8 | 9 | 10
NPYLR7 ag | 0.5 | 5.1 | 10.2 | -1.5 | 0.8
NPYLR7 ag max-min | -1.4 | 4.5 | 8.1 | -5.5 | 2.9

11: CC(CS(C)(=O)=O)N(C(=O)C1CCN(C2CCCCC2)C1)C1CC1 (stereo not given)
12: Cc1cccc(CNC(=O)c2sc(=O)n(CCc3ccccc3)c2C)c1
13: c1cncc(Cc2nnc3n2CCN(Cc2cc4n(n2)CCCNC4)CC3)c1
14: Cc1nc(C(C)(C)C)nc2sc(C(=O)O)c(C)c12
15: COc1ccc(CCN(C)C2CCCN(S(=O)(=O)c3cccnc3)C2)cc1OC (stereo not given)
assay / entry | 11 | 12 | 13 | 14 | 15
NPYLR7 ag | 3.0 | 1.9 | 15.3 | 1.5 | 25.9
NPYLR7 ag max-min | 2.7 | -0.7 | 9.6 | 0.1 | 14.3

16: O=C(NCC1CCN(Cc2ccsc2)CC1)c1ccccc1C(F)(F)F
17: CC1(C(=O)Nc2cccc(Oc3ccccc3)c2)CCN1Cc1ccc(OC(F)(F)F)cc1 (stereo not given)
18: CCc1ccc(S(=O)(=O)N2CCCC(N(C)CCCN(C)C)C2)cc1 (stereo not given)
19: O=C(CCc1nc2ccccc2[nH]c1=O)OCc1ccc(S(=O)(=O)c2ccccc2)cc1
20: CC1CCCN(C(=O)/C(=C/c2cccc(F)c2)NC(=O)c2ccccc2Br)C1 (stereo not given)
assay / entry | 16 | 17 | 18 | 19 | 20
NPYLR7 ag | -9.8 | -2.4 | 5.3 | -0.1 | 4.6
NPYLR7 ag max-min | -9.8 | -6.5 | 0.4 | -3.7 | 4.1

21: O=C1CCCN1c1ccc(Cl)c(NS(=O)(=O)c2cccs2)c1
22: Fc1ccc(-c2cc(CNc3nccc(C4CCCC4)n3)no2)cc1
23: CCCN(C(=O)/C=C/c1ccc([N+](=O)[O-])cc1)C(C)c1nc2ccccc2c(=O)n1-c1cc(OC)cc(OC)c1Br (stereo not given)
24: CCOc1cc(C=C2N=C(c3cccc(F)c3)OC2=O)cc(Br)c1OC
25: CN1C(=CC(=O)C[n+]2ccc3ccccc3c2)C(C)(C)c2ccccc21
assay / entry | 21 | 22 | 23 | 24 | 25
NPYLR7 ag | 0.4&-2.7 | -1.0 | 2.6 | -7.7 | 0.5
NPYLR7 ag max-min | 0.6&-5.3 | -2.1 | 4.4 | -11.0 | 59.6

26: CN1CC2(CCN(C(=O)C3CCN(Cc4ccco4)CC3)C2)OC1=O (stereo not given)
27: Cc1ccc2nc(N(CCCN(C)C)C(=O)c3ccccc3S(C)(=O)=O)sc2c1
28: CCOC(=O)N1CCc2c(sc(NC(=O)CC)c2-c2nc3ccccc3s2)C1
29: CC(=O)CC(=O)Nc1ccc(Cl)cc1[N+](=O)[O-]
30: O=C(NCCC1=CCCCC1)c1cncn1-c1cccc(-c2ccccc2C(F)(F)F)c1
assay / entry | 26 | 27 | 28 | 29 | 30
NPYLR7 ag | 11.6 | -1.3 | 3.3 | 15.1 | 4.3
NPYLR7 ag max-min | 9.6 | -3.3 | -1.2 | 7.0 | 2.3

Rewritten with bars between the fields: part of the list above.
entry | mol | NPYLR7 ag | NPYLR7 ag max-min
20 | CC1CCCN(C(=O)/C(=C/c2cccc(F)c2)NC(=O)c2ccccc2Br)C1 (stereo not given) | 4.6 | 4.1
21 | O=C1CCCN1c1ccc(Cl)c(NS(=O)(=O)c2cccs2)c1 | 0.4&-2.7 | 0.6&-5.3
22 | Fc1ccc(-c2cc(CNc3nccc(C4CCCC4)n3)no2)cc1 | -1.0 | -2.1
23 | CCCN(C(=O)/C=C/c1ccc([N+](=O)[O-])cc1)C(C)c1nc2ccccc2c(=O)n1-c1cc(OC)cc(OC)c1Br (stereo not given) | 2.6 | 4.4
24 | CCOc1cc(C=C2N=C(c3cccc(F)c3)OC2=O)cc(Br)c1OC | -7.7 | -11.0
25 | CN1C(=CC(=O)C[n+]2ccc3ccccc3c2)C(C)(C)c2ccccc21 | 0.5 | 59.6

The results go on:
31: Cc1sc2ncc(C(=O)N3CCC4(CN(C)C(=O)O4)C3)c(=O)n2c1C (stereo not given)
32: CC(CNC(=O)N1CCC2CCC(C1)N2C(C)C)CN1CCCC1 (stereo not given)
33: CC1CCCCC1NC(=O)Cn1ccc(C(F)(F)F)n1 (stereo not given)
34: CNC(=O)C(C)NC(=O)CN(C)C(=O)OC (stereo not given)
35: Cc1c(C)n2c3c(=O)n(CCN4CCOCC4)c(=O)n(C)c3nc2n1-c1cccc(Cl)c1
assay / entry | 31 | 32 | 33 | 34 | 35
NPYLR7 ag | 16.7 | -0.2 | -0.5 | -6.5 | 14.5
NPYLR7 ag max-min | 13.1 | 1.5 | -1.1 | -6.6 | 2.2

36: CCCCCCCC(=O)NC(C)c1nc2ccccc2c(=O)n1CCOC (stereo not given)
37: COC(=O)c1cc(C=C2N=C(c3ccccc3Cl)OC2=O)oc1C
38: COCC1CCCN(c2nncc(-c3ccc(OC)c(F)c3)n2)C1 (stereo not given)
39: Cc1nn(Cc2ccc(F)cc2)c(=O)c2c1cnn2-c1ccc(F)cc1
40: CCN(CC)CCn1c(=N)n(CC(O)c2ccco2)c2ccccc21 (stereo not given)
assay / entry | 36 | 37 | 38 | 39 | 40
NPYLR7 ag | 13.6 | 17.6 | 0.1 | 0.9 | -1.6
NPYLR7 ag max-min | 25.0 | 5.7 | -2.4 | 0.1 | -1.8

41: COc1ccc(CCN2C(=O)N(C)C(=O)C23CCN(Cc2ccccc2C(F)(F)F)CC3)cc1
42: CC1(Cc2ccc(F)cc2)C(=O)Nc2cc(Cl)ccc21 (stereo not given)
43: Nc1c(Br)c(=O)n(CC(=O)Nc2cccc(Cl)c2)c(=O)n1Cc1ccccc1
44: COc1cc(S(=O)(=O)N2CCCCC2)c(OC)cc1Cl
45: CN(C)CCn1c2c(c(SCC(=O)Nc3nccs3)nc1=O)CCC2
assay / entry | 41 | 42 | 43 | 44 | 45
NPYLR7 ag | -13.3 | 0.7 | 1.0 | -1.2 | -3.4
NPYLR7 ag max-min | -15.1 | 8.4 | -1.6 | 7.0 | -6.8

46: Fc1ccc(-c2nc(-c3ccc(Br)o3)no2)cc1
47: O=C(Cc1ccc(F)cc1)N1CCN(c2nccc(-c3cccc(C(F)(F)F)c3)n2)CC1
48: Cn1c(=O)[nH]c(=O)c2c1nc1n(-c3ccccc3)c(-c3ccccc3)cn21
49: Cn1c(=O)n(Cc2c(Cl)cccc2Cl)c(=O)c2c1nc1oc(C(C)(C)C)cn12
50: Cc1cccc(CN(Cc2ccccc2)C(=O)c2nnc(C)o2)n1
assay / entry | 46 | 47 | 48 | 49 | 50
NPYLR7 ag | 1.6 | 3.2 | 3.9 | 10.1 | 2.4
NPYLR7 ag max-min | -3.2 | 2.2 | 2.8 | 8.8 | -0.4

51: COc1ccccc1OCC1CN(C(=O)Cc2cccc(F)c2)CCO1 (stereo not given)
52: N#CC1C(=N)OC2=C(C(=O)CCC2)C1c1ccccc1Br (stereo not given)
53: COc1cccc2cc(-c3csc(Nc4cccc(F)c4)n3)c(=O)oc12
54: CCCc1nc(N2CCOc3c(O)cc(-c4cccc(Cl)c4)cc3C2)no1
55: COc1cc(C2NC(=O)N(C)C(C)=C2C(=O)OCCC(C)C)cc(Cl)c1O (stereo not given)
assay / entry | 51 | 52 | 53 | 54 | 55
NPYLR7 ag | 4.1 | -10.2 | 7.5 | 27.2 | 8.8
NPYLR7 ag max-min | 1.7 | -19.5 | 7.2 | 13.4 | 6.3

56: COc1ccc(NC(=O)CCC2CCCN(C3CCOCC3)C2)cc1Cl (stereo not given)
57: CCOCc1ccccc1NCc1nc(C)ccc1O
58: O=C(O)CCN1C(=O)/C(=C\c2ccc(-c3ccc(Cl)c(Cl)c3)o2)SC1=S
59: O=C(NCCc1csc2nc(-c3cccs3)nn12)c1cccc(Br)c1
60: Cc1nn(C)c(C)c1CCC(=O)NC1CCCc2c1cnn2-c1ccc(F)cc1F (stereo not given)
assay / entry | 56 | 57 | 58 | 59 | 60
NPYLR7 ag | 16.4 | 1.3 | -5.9 | -8.9 | 30.3
NPYLR7 ag max-min | 5.8 | 0.8 | -9.1 | -2.3 | 22.4

61: O=C1NC2(CCN(C(=O)COc3ccccc3)CC2)Nc2ccc(Cl)c(Cl)c21
62: CC1CCCCN1CCNC(=O)N1CCC(OCCN(C)C)CC1 (stereo not given)
63: CC(NS(=O)(=O)/C=C/c1ccccc1)c1ccc(Cl)c(Cl)c1 (stereo not given)
64: CCn1c(=O)c2c(nc3n2CCCN3c2ccc(F)cc2)n(C)c1=O
65: O=C(CCc1ncc(-c2ccc(F)cc2)o1)NC1CCN(C2CCCCCC2)C1 (stereo not given)
assay / entry | 61 | 62 | 63 | 64 | 65
NPYLR7 ag | 2.9 | -6.2 | 1.7 | -2.8 | -4.1
NPYLR7 ag max-min | 15.4 | -7.6 | 2.6 | -3.5 | -6.0

66: Cc1cc([N+](=O)[O-])nn1Cc1ccc(C(=O)N2CCSCC2)cc1
67: O=C(NCC1(Cn2cccn2)CC1)c1ccc(CC2CCCNC2)cc1 (stereo not given)
68: O=C(c1ccco1)N(Cc1ccccc1F)CC1CC(c2ccc(F)cc2)=NO1 (stereo not given)
69: C#CCOCC(O)CN(Cc1ccc(F)cc1)Cc1ccccc1OC (stereo not given)
70: COC1(C)CC(NC(=O)N(C)C(C)c2ccncc2)C1(C)C (stereo not given)
assay / entry | 66 | 67 | 68 | 69 | 70
NPYLR7 ag | 1.5 | 0.6 | 23.5 | 2.9 | 1.0
NPYLR7 ag max-min | -0.9 | -2.2 | 26.8 | -0.9 | 0.2

71: Cc1cc(Nc2ccc3c(=O)c(Oc4ccc(F)cc4)c(C)oc3c2)no1
72: CC(C)n1nccc1C(=O)Nc1nc2c(s1)-c1cccc3cccc-2c13
73: NC(=O)CC1CCN(Cc2noc(Cc3ccc(Br)cc3)n2)CC1
74: COCc1c(C(=O)NCC(O)c2ccc(F)c(F)c2)oc2ccccc12 (stereo not given)
75: CCCCOc1ccc(C(=O)NCc2nnc(SCc3ccccc3C)n2-c2ccc(Cl)cc2Cl)cc1
assay / entry | 71 | 72 | 73 | 74 | 75
NPYLR7 ag | 3.1 | -9.1 | -5.7 | -0.5 | 25.7
NPYLR7 ag max-min | 2.4 | -11.7 | -4.4 | -1.1 | 24.9

76: CCC(C)N(CC(=O)N1CCc2sccc2C1c1ccc(C)cc1)C(=O)c1cc(Cl)cc(Cl)c1 (stereo not given)
77: COCCc1noc(C2CCCCN2C(=O)c2cccc3ccnn23)n1 (stereo not given)
78: CCSc1nc(CC(=O)N2CCN(C(=O)C3CCCO3)CC2)cs1 (stereo not given)
79: COc1cn(CC(=O)NCc2ccccc2)c(CN2CCN(C(C)=O)CC2)cc1=O
80: COc1cccc(Cn2c(=O)c(C(=O)NCc3ccccn3)nn(-c3ccccc3F)c2=O)c1
assay / entry | 76 | 77 | 78 | 79 | 80
NPYLR7 ag | -3.7 | 6.4 | -2.2 | 4.2 | -1.3
NPYLR7 ag max-min | 1.4 | 5.4 | -5.9 | 1.6 | 5.8

81: O=C(c1ncc[nH]1)N1CCOC(c2ccccc2)C1 (stereo not given)
82: COCC(=O)N1CCCC(C(=O)NC2CCCC[C@H]2NC(=O)c2ccc(F)cc2)C1 (stereo not given in full)
83: COc1cc(C=C2N=C(c3ccccc3I)OC2=O)ccc1OC(F)F
84: CCOC(=O)c1nn(-c2ccccc2)c(=O)cc1N1CCc2ccccc2C1
85: CN(Cc1cnccn1)C(=O)CN(c1cccc(F)c1)S(C)(=O)=O
assay / entry | 81 | 82 | 83 | 84 | 85
NPYLR7 ag | -0.5 | 0.9 | -5.9 | 7.2 | 4.4
NPYLR7 ag max-min | 3.9 | 0.5 | -15.6 | 1.8 | 3.3

86: COc1ccc(-c2noc(CCC(=O)N3CCc4ccccc43)n2)cc1
87: Cc1sc2nc(C(C)(C)C)oc(=O)c2c1C
88: O=C(CCCc1c[nH]c2ccccc12)NC1CS(=O)(=O)CC1N1CCCCC1 (stereo not given)
89: O=C(c1ccc(F)c(F)c1)N1CCN(c2nccc(-c3ccco3)n2)CC1
90: COC(C(=O)Nc1ccnn1C1CCN(Cc2ccc3nonc3c2)CC1)c1ccccc1 (stereo not given)
assay / entry | 86 | 87 | 88 | 89 | 90
NPYLR7 ag | 2.3 | 3.7 | -0.4 | -2.7 | -3.6
NPYLR7 ag max-min | 19.3 | 1.3 | -6.1 | 4.5 | -4.9

91: O=C(NCCCN1CCCC1=O)C(C1CCCC1)N1CCN(C(=O)c2ccc(C(F)(F)F)cc2)CC1 (stereo not given)
92: O=C(NC1CCCN(Cc2c(F)cccc2F)C1)c1ccn[nH]1 (stereo not given)
93: Cc1cccc(NC(=O)CCC2CCN(S(=O)(=O)N(C)C)CC2)c1
94: COC(=O)c1cnc(N(C)S(=O)(=O)c2cnn(C(C)C)c2)s1
95: Cc1ccccc1-n1ncc(C(=O)NCC2CCCO2)c1C1CC1 (stereo not given)
assay / entry | 91 | 92 | 93 | 94 | 95
NPYLR7 ag | 11.2 | 6.5 | 18.9 | -0.2 | 0.9
NPYLR7 ag max-min | 7.3 | 4.7 | 10.2 | -0.3 | 2.4

Bioassay records deposited in PubChem BioAssay by Fisher Drug Discovery Resource Center.

This is a subset. The share of hits here may be higher or lower than overall.
